Bioassay records deposited in PubChem by several laboratories.
ugtP null kill = compounds lethal to S. aureus RN4220 ugtP deletion mutant | OD600 growth, 16 h; some inactives read as strong as hits | growth inhibition, % (test concentration not listed) | 0.54% of 330,000 active | AID 1259309;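 active = z-score under -3 and OD600 up to 0.15 on both plates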;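 also: plate controls were untreated wells for no effect and antibiotic for full effect; wells of about 80 µL received 100 nL stock; the first replicate is given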
PrP UTR inh = suppresses PrP 5' UTR mRNA reporter expression; AID 488862; inhibition, % (no concentration beside the values); 0.35% of 340,000 active; cell-based PrP 5' UTR mRNA reporter, plate reader;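 active = every replicate at 50% or more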;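 also: 0 = median of the neutral control wells; tested in H4 reporter cells; numbers are from one replicate; inactives centre near -14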
Bead autofluor = flagged as autofluorescent in microsphere protease counterscreen; AID 624483; fluorescence intensity (concentration not given with the values); compound autofluorescence counterscreen, microsphere flow cytometry; hits give high values; 3.1% of 360,000 active;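 active = at least 3 SD above the mean of all compounds, about 16000 in these data; inconclusive = too few beads counted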;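 also: 100 nL of 1 mM stock went into each well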
BJeLR viability = BJeLR cell viability loss; BJeLR (HRASV12) viability, CellTiter-Glo ATP luminescence, 48 h; reference of the scale not given here; inhibition, % (test concentration not listed); 0.17% of 300,000 active; AID 1554;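 active = replicate mean above 50%; inconclusive = above 50% but judged a plate artefact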;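 also: 50 nL library stock added to about 25 µL; numbers are from one replicate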
Mtb hypoxia rep = Mtb hypoxia fluorescent reporter inhibition; fluorescence inhibition, % (no concentration beside the values); 0.1% of 300,000 active; M. tuberculosis hypoxia-regulated fluorescent reporter, fluorescence;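 active = 35 to 45% if threefold the growth effect, above 45% if 1.5-fold the growth effect; inactive = the rest, general growth blockers included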;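 also: wells of about 50 µL received 100 nL stock; 0% = vehicle wells and 100% = reference inhibitor wells; whole bacteria with a GFP reporter of the hypoxia response; strong numbers were not always called active; many hits fall short of the cut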
RN4220 kill = S. aureus RN4220 growth inhibition | OD600, 16 h | inhibition, % (test concentration not listed) | 0.33% of 330,000 active | AID 1259311;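 active = z-score of -3 or lower and OD600 up to 0.18 on both plates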;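 also: plate controls were untreated cells for no effect and reference antibiotic for full effect; stock transfer was 100 nL into about 80 µL; one replicate is shown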
Mtb hypoxia rep growth = recorded beside Mtb hypoxia rep, whose call it bears; growth inhibition, %; measured here: M. tuberculosis growth (absorbance);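 0% = vehicle and 100% = reference antibiotic; read after six days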
* = called active by the depositor; u = inconclusive; x = no result given. Rows are unselected. About 4.1% of those tested had a hit in this group.

Results follow in this order: BJeLR viability	ugtP null kill	Bead autofluor	PrP UTR inh	RN4220 kill	Mtb hypoxia rep growth	Mtb hypoxia rep
1) COc1ccccc1N1CCN(Cc2cc(=O)c(OCC(=O)NC(C)C)co2)CC1
  9	5	5912	-12	2.7	0	8
2) CCCCC(c1nnnn1C(C)C)N1CCN(C(=O)c2ccco2)CC1 (configuration not stated)
  -14	7	3980	-5	5.5	0	0
3) Cc1ccc(S(=O)(=O)NNC(=O)NC23CC4CC(CC(C4)C2)C3)cc1
  8	-5	1957	-9	7.4	12	0
4) O=c1c2cc([N+](=O)[O-])ccc2nc2n1CCCC2
  -9	16	4078	-13	5.2	4	13
5) O=C(Nc1cccc(-n2cnnn2)c1)C1CCCN(Cc2cccc(C(F)(F)F)c2)C1 (configuration not stated)
  2	-9	6027	0	-1.9	-3	-1
6) COCCCN(C(=O)c1cc2c(s1)CCC2)c1c(N)n(Cc2ccccc2)c(=O)[nH]c1=O
  -4	-6	2604	-11	-3.7	11	-8
7) O=C(Nc1ccc(S(=O)(=O)N2CCN(Cc3ccccc3)CC2)cc1)c1cnccn1
  2	8	16875*	-4	3.1	1	-4
8) CCCCC1=CC2=CC(=O)C(C)(OC(=O)CC)C(=O)C2=CN1C1CCCCC1 (configuration not stated)
  1	x	3786	6	x	x	x
9) COc1nnc(-c2ccc(C)c(S(=O)(=O)N(C)C)c2)c2ccccc12
  10	7	3865	-4	3.3	10	2
10) Cc1c(NC(=O)C(C)c2ccc(CC(C)C)cc2)c(=O)n(-c2ccccc2)n1C (configuration not stated)
  -4	1	3108	-5	0.9	1	0
11) O=C(NCCCN1CCCC1)c1ccc(CS(=O)(=O)c2ccc(Br)cc2)o1
  3	-4	6417	-25	3.2	x	x
12) O=C1OC(c2cccs2)=N/C1=C/c1ccc(-c2cccc(C(=O)O)c2)o1
  x	1	4346	35	3.5	-3	3
13) CCC1(C)Cc2ccccc2C(Nc2c(C)n(C)n(-c3ccccc3)c2=O)=N1 (configuration not stated)
  0	-2	3156	-8	2.8	3	1
14) COc1ccc(NC(=O)N(C)C[C@H]2Oc3c(NC(=O)C4CCCCC4)cccc3C(=O)N([C@H](C)CO)C[C@@H]2C)cc1
  x	9	3380	-26	-0.1	-1	5
15) NS(=O)(=O)c1cccc(NC(=O)c2ccc(NS(=O)(=O)c3cccc([N+](=O)[O-])c3)cc2)c1
  x	5	3164	-20	2.8	2	1
16) Oc1ccc(/C=N/Nc2nc(N3CCCC3)nc(N3CCCC3)n2)cc1O
  -7	x	3318	-21	x	x	x
17) CCCCC(=O)Nc1ccc2c(c1)nc(CCNC(=O)c1ccco1)n2C
  7	7	3768	-29	4.9	-5	-2
18) COc1ccc(/C=C/C(=O)OCC(=O)N(C)c2c(N)n(Cc3ccccc3)c(=O)[nH]c2=O)cc1OC
  x	2	4893	-24	0.1	0	-6
19) Cc1cc(C(=O)Nc2c[nH]c(=O)[nH]c2=O)ccc1[N+](=O)[O-]
  -6	5	2614	-20	3.1	3	0
20) CCn1nc(NC(=O)c2ccco2)c2cc3ccccc3nc21
  7	-28	16504*	-7	6.1	1	5
21) O=C(O)CCN1CCOCC1
  -4	-1	3013	-25	7.7	6	-4
22) O=C(O)c1cccnc1C(=O)c1ccccc1
  -9	1	6667	-32	1.9	-2	12
23) CC1CC(C)C(=O)C(C(CC2CC(=O)NC(=O)C2)OC(=O)CC(=O)c2ccccc2)C1 (configuration not stated)
  x	0	3709	28	2.7	3	7
24) CC(=O)c1ccc(OC(C)C(=O)OCC(=O)NCCc2ccccc2)cc1 (configuration not stated)
  x	1	u	-16	-1.5	13	13
25) CS(=O)(=O)N(CC(=O)N1CCCC1)Cc1ccc(Cl)cc1
  -9	2	2365	-17	1.3	2	-9
26) CCOC(=O)c1cc(-c2ccccc2)sc1NC(=O)C(C)OC(=O)c1cccc(S(=O)(=O)N(C)C)c1 (configuration not stated)
  14	-18	2193	-31	4.3	3	5
27) CCC(=O)N1CCc2cc(S(=O)(=O)CCC(=O)Nc3nc(C)cs3)ccc21
  -6	4	3409	12	2.0	x	x
28) CS(=O)(=O)c1ccc(Cl)c(S(=O)(=O)NCc2ccccc2)c1
  -9	12	10777	-18	1.2	1	7
29) CN(CC(=O)Nc1ccccc1Cl)C(=O)COC(=O)Cc1c(F)cccc1Cl
  -6	1	6703	-13	2.6	-3	3
30) CCN(CC)S(=O)(=O)c1ccc2[nH]c(=O)cc(C(=O)N(C)C3CCS(=O)(=O)C3)c2c1 (configuration not stated)
  x	4	x	-6	7.2	3	6
31) O=C(Nc1ccc2ccccc2c1)c1cccc2ccccc12
  x	-3	3795	-87	1.3	8	20
32) C=CCOc1cccc(CNc2ccc3[nH]c(=O)[nH]c3c2)c1
  -23	x	3969	-1	x	x	x
33) CCN(CC)C(=O)CSc1nc(C)cc(C)c1C#N
  6	7	3722	-24	2.4	-1	10
34) C#CCOCCOCCOCCNc1nc(N2CCN(C(=O)[C@H](CCCN=C(N)N)n3cc(C(N)[C@@H](C)CC)nn3)CC2)nc(N2CCN(C(=O)[C@H](CCC(=O)O)n3cc([C@@H](N)[C@H](C)CC)nn3)CC2)n1 (some centres not stated)
  x	4	4316	2	-1.2	-1	1
35) Cc1ccc(NC(=S)N(CCN(C)C)C(C)c2ccco2)c(C)c1 (configuration not stated)
  18	13	6026	6	3.4	10	6
36) CCOC(=O)Cn1cc(C#N)c2cccc(CC)c21
  -1	4	5019	-19	3.7	2	10
37) CC(O)CN1C(=O)C(CC(=O)Nc2ccc(Cl)cc2)SC1=Nc1ccccc1 (configuration not stated)
  5	-17	4657	-10	-8.4	x	x
38) CCOc1ccc(-c2nc(CN3CCCC(C(=O)N4CCOCC4)C3)c(C)o2)cc1 (configuration not stated)
  -4	1	6087	-12	-1.6	9	1
39) O=C(NNc1cc(C(F)(F)F)ccc1Cl)c1ccc(=O)[nH]c1
  2	0	4260	-19	1.4	7	5
40) Cc1ccc(N2C(SCC(=O)O)=NC(=Nc3cccc(C)c3)C23CCCC3)cc1
  -3	4	2737	-17	3.7	-2	-1
41) O=C(Nc1ccccc1)Nc1scc2c1c(=O)oc1ccccc12
  -2	9	x	x	6.2	2	3
42) O=C(O)CSc1ccnc2cc(Cl)ccc12
  6	3	x	-1	0.9	-3	-5
43) CCOc1ccc(C(=O)NCc2ccco2)cc1OC
  -4	1	3240	-16	-1.7	9	1
44) CC(C)CCNC(=O)CN(Cc1ccccc1)C(=O)CCC(=O)Nc1nccs1
  1	4	3016	-8	5.6	7	9
45) COC(=O)c1ccc(C(=O)N2CCCC(CNC(=O)c3ccccc3Cl)C2)cc1 (configuration not stated)
  6	14	2465	-5	-0.4	5	2
46) CNc1sc(C(=O)c2ccccc2F)c(N)c1-c1nc2ccccc2s1
  -1	23	u	-43	2.1	8	18
47) COc1c(OC)c(O)c2c(=O)cc(-c3c(O)cccc3O)oc2c1OC
  -7	1	5016	-17	4.7	x	x
48) CC(C)OC(=O)/C(=C/c1cccnc1)NC(=O)c1ccccc1
  8	11	6938	-15	1.7	13	6
49) Cc1ccc(CSc2nnc(SCC(=O)NN=C/C=C/c3ccccc3[N+](=O)[O-])s2)cc1
  x	-4	x	x	19	7	12
50) O=C1ON=C(c2ccccc2)/C1=C/c1ccc(O)c(O)c1
  2	5	3466	-2	6.6	-3	9

Compound profiles, as listed above. Screens in order: BJeLR viability | ugtP null kill | Bead autofluor | PrP UTR inh | RN4220 kill | Mtb hypoxia rep growth | Mtb hypoxia rep
O=C1ON=C(c2ccccc2)/C1=C/c1ccc(O)c(O)c1 in the list: 2 | 5 | 3466 | -2 | 6.6 | -3 | 9
Cc1ccc(CSc2nnc(SCC(=O)NN=C/C=C/c3ccccc3[N+](=O)[O-])s2)cc1 in the list: x | -4 | x | x | 19 | 7 | 12
O=C(Nc1ccccc1)Nc1scc2c1c(=O)oc1ccccc12 in the list: -2 | 9 | x | x | 6.2 | 2 | 3

The list continues.
Results follow in this order: BJeLR viability	ugtP null kill	Bead autofluor	PrP UTR inh	RN4220 kill	Mtb hypoxia rep growth	Mtb hypoxia rep
51) CC(C)CCn1cnc2c1c(=O)n(C)c(=O)n2C
  -9	6	4310	-5	2.2	x	x
52) CC(=O)N(C)c1ccc(NC(=S)Nc2ccc(C(C)C)cc2)cc1
  2	3	3235	-32	5.0	7	3
53) COc1cccc(NC(=O)COc2ccc(C(=O)N3CCN(C)CC3)cc2)c1
  -11	4	5702	-4	2.3	2	1
54) O=C(CCn1cccc1)Nc1ccccc1F
  3	-8	u	-10	2.3	15	11
55) COC(=O)Nc1sc(C(=O)N(C)C)c(C)c1C(=O)OC
  3	-1	3137	-11	2.6	6	5
56) COc1ccc(-c2nc3ccccc3c(=O)n2-c2cccnc2)cc1
  -5	2	22591*	-12	1.2	9	5
57) COc1cc(C2SCC(=O)N2c2c(C)n(C)n(-c3ccccc3)c2=O)ccc1O (configuration not stated)
  2	-4	4877	-18	1.7	-3	-1
58) Cc1cccc(OCCSc2nnc(-c3ccoc3C)n2C)c1
  4	1	20328*	-32	3.8	16	6
59) CC(NC(=O)CN1C(=O)NC2(CCCCCC2)C1=O)c1ccccc1 (configuration not stated)
  x	-3	4298	-20	-0.3	15	9
60) COc1ccccc1C(O)P(=O)(OC1CCCCC1)OC1CCCCC1 (configuration not stated)
  -6	4	4482	-18	4.7	7	4
61) CCOc1cc([C@H]2[C@@H]3CCCC[C@]3(O)CCN2CC(=O)NCc2ccco2)ccc1O
  -5	0	22611*	-28	4.3	4	5
62) CNC(=O)c1nc(C)c(C2(C)CC(c3ccccc3)=NO2)s1 (configuration not stated)
  8	3	3672	4	6.3	5	8
63) Cc1ccccc1-c1ccc(Nc2ccc(C(=O)N3CCOCC3)cc2)nn1
  -17	-2	16379*	-31	7.1	7	5
64) Cc1cccc(C)c1NC(=O)CSc1nnc(CCCCCNC(=O)OC(C)(C)C)o1
  -1	3	16539*	-6	2.4	11	4
65) Brc1cc2c(cc1C=NNc1nc(N3CCOCC3)nc(N3CCOCC3)n1)OCO2
  x	3	x	x	1.4	1	-1
66) Cc1cc(C)c2c(Cn3ccnc3)cc(=O)oc2c1
  1	1	3888	-32	0.1	-1	-3
67) COCCCN1CCN(c2nnc3n2-c2sc(Br)cc2C(c2ccccc2Cl)=NC3)CC1
  8	6	2176	-20	1.2	x	x
68) Cc1cc(NC(=O)CCC(=O)N(CC(=O)NC2CCCC2)c2ccc(Cl)cc2)no1
  -2	11	3685	-19	1.5	3	10
69) O=C(N1CCOCC1)N1CCN(c2ccccc2F)CC1
  -3	-4	4821	-5	-9.9	10	7
70) Cc1ccc(C(=O)/C=C/Nc2ccc(S(=O)(=O)Nc3onc(C)c3C)cc2)cc1
  -9	0	2346	-22	11	16	14
71) CC1CCCN(C(=O)Cc2ccc(F)cc2)C1 (configuration not stated)
  -37	-4	8957	-18	-3.4	4	5
72) CC(C)c1ccc(S(=O)(=O)N2CCN(C(=O)CN3C(=O)NC4(CCCCC4)C3=O)CC2)cc1
  1	3	5387	-4	4.4	2	2
73) CSCCc1nc(SCC(=O)Nc2nnc(C)s2)[nH]c1C
  -3	6	2792	-27	-0.6	x	x
74) N#Cc1ccsc1NC(=O)CSc1nnnn1-c1ccc(O)cc1
  1	10	3418	-11	3.4	-2	5
75) O=C(NN=Cc1cccc(Oc2ccccc2)c1)c1cccc(O)c1
  x	9	x	x	2.4	0	-1
76) CCO[C@@H]1OC(C(=O)N2CCN(Cc3ccccc3)CC2)=C[C@H](C2CC2)[C@H]1CCCO
  1	x	3866	-3	x	x	x
77) CCn1c(SCC(N)=O)nnc1-c1ccc2c(c1)OCO2
  -3	2	4252	-7	6.2	2	13
78) CC(C)Oc1ccc(S(=O)(=O)N2CCOCC2)cc1NC(=O)C1CCCCC1
  x	-4	3221	-15	-0.3	8	-5
79) Cc1cc(-c2ccc(C)c(S(=O)(=O)Nc3ccc(S(N)(=O)=O)cc3)c2)on1
  -8	6	5695	-6	2.8	4	4
80) COc1ccc2nc(NC(=O)C3CCN(S(=O)(=O)c4cccc5nsnc45)CC3)sc2c1
  x	-1	3251	26	0.1	x	x
81) Cc1onc(-c2ccccc2)c1C(=O)NNC(=S)NC(=O)/C=C/c1ccccc1
  -6	-13	6467	-13	29	4	4
82) O=C(OCCN1CCOCC1)c1ccc(O)cc1
  -2	1	x	-18	2.7	10	-1
83) COc1cc(OC)c(N(C)S(=O)(=O)c2cccc(C(=O)OCC(=O)N(C)C3CCCCC3)c2)cc1Cl
  x	-3	4294	-12	5.6	2	12
